Bioassay records from PubChem.
BJeLR viability: MLPCN primary cell-based screen for lethality selective to Ras in HRASV12 cells; AID 1554, 2009; hit rate 0.17% among 300,000; inhibition, % (no concentration beside the values); BJeLR (HRASV12) viability, CellTiter-Glo ATP luminescence, 48 h; reference of the scale not given here;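 active = replicate mean above 50%; inconclusive = above 50% but judged a plate artefact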;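 note: 50 nL library stock added to about 25 µL; numbers are from one replicate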
Autofluor counter: counter-screen for toxin protease inhibitors: compound fluorescence; compound autofluorescence counterscreen, microsphere flow cytometry; stronger effect = higher value; fluorescence intensity (test concentration not listed); hit rate 3.1% among 360,000; AID 624483;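 active = at least 3 SD above the mean of all compounds, about 16000 in these data; inconclusive = too few beads counted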;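 note: 100 nL of 1 mM stock went into each well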
Mtb hypoxia rep: PubChem AID 1159583. M. tuberculosis hypoxia-regulated fluorescent reporter, fluorescence. fluorescence inhibition, % (concentration not given with the values). hit rate 0.1% among 300,000;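 active = 35 to 45% if threefold the growth effect, above 45% if 1.5-fold the growth effect; inactive = the rest, general growth blockers included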;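 note: wells of about 50 µL received 100 nL stock; 0% = vehicle wells and 100% = reference inhibitor wells; whole bacteria with a GFP reporter of the hypoxia response; strong numbers were not always called active; many hits fall short of the cut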
Sa RN4220 lethal: growth inhibition of S. aureus RN4220, primary screen, OD600 | inhibition, % (concentration not given with the values) | AID 1259311, 2017 | 16 h | hit rate 0.33% among 330,000;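 active = z-score of -3 or lower and OD600 up to 0.18 on both plates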;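 note: plate controls were untreated cells for no effect and reference antibiotic for full effect; stock transfer was 100 nL into about 80 µL; one replicate is shown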
PrP UTR inh: inhibition of PrP 5' UTR reporter expression; cell-based PrP 5' UTR mRNA reporter, plate reader; inhibition, % (no concentration beside the values); hit rate 0.35% among 340,000;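 active = every replicate at 50% or more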;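 note: 0 = median of the neutral control wells; tested in H4 reporter cells; numbers are from one replicate; inactives centre near -14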
Sa ugtP lethal: growth inhibition of ugtP-null S. aureus, primary screen, RN4220 ugtP deletion, OD600. growth inhibition, % (concentration not given with the values). hit rate 0.54% among 330,000. 16 h; some inactives read as strong as hits. AID 1259309, 2017;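 active = z-score under -3 and OD600 up to 0.15 on both plates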;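 note: plate controls were untreated wells for no effect and antibiotic for full effect; wells of about 80 µL received 100 nL stock; the first replicate is given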
Mtb hypoxia rep growth: also measured in Mtb hypoxia rep; calls as there; growth inhibition, %; measured here: M. tuberculosis growth (absorbance);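 0% = vehicle and 100% = reference antibiotic; read after six days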
The depositor's hits bear a star; u = inconclusive; x = no result given.

Fields – Sa ugtP lethal, PrP UTR inh, Autofluor counter, Mtb hypoxia rep growth, Sa RN4220 lethal, BJeLR viability, Mtb hypoxia rep
#1 Cc1ccc(-c2nn3c(C)nnc3c3ccccc23)cc1S(=O)(=O)NC(C)c1ccccc1 (stereo not given)
→ -26.5, -3.7, 2885, 2.6, 3.8, -3.8, 16.4
#2 CCC(C)NC(=O)CN(C1CCCCC1)S(=O)(=O)c1ccc(F)cc1 (stereo not given)
→ 9.2, -7.0, x, -28.7, 4.7, -3.4, 4.9
#3 COCCn1c(=O)[nH]c2cc(C(=O)N3CCN(c4ccccc4OC)CC3)ccc2c1=O
→ 9.2, -7.1, 3042, 0.2, 4.2, -6.9, 6.2
#4 Cc1ccc(CNC(=O)Nc2ccc(C)cc2)cc1
→ 4.4, -31.2, 2711, -1.3, 2.0, -10.0, 7.8
#5 CCOc1ccc(C=NNC(=O)c2ccccc2NC(=O)c2ccc(OC)cc2)cc1
→ 15.6, x, x, -3.5, -4.1, x, -0.6
#6 CCOC(=O)CC(NC(=O)c1cc2cccc(OC)c2oc1=O)c1ccc(OC)cc1 (stereo not given)
→ 5.4, -29.5, 3626, 0.6, 2.0, 0.9, 2.4
#7 COC(=O)c1cccc(NC(=S)NCc2ccc(F)cc2)c1
→ -7.9, -24.4, 2064, 1.0, -0.8, -6.7, 9.3
#8 COc1ccccc1OCCn1c(=S)[nH]c2ccccc21
→ -8.5, -0.8, 3986, -2.5, -0.5, -3.5, -8.3
#9 CCN1C(=O)[C@H]2[C@@H](c3ccc(C)cc3)N3C(=O)N(c4ccccc4)C(=O)[C@@]3(C)[C@H]2C1=O
→ x, -14.3, 2857, x, x, -1.3, x
#10 N#C/C(=C\c1ccccc1)C(=O)Nc1nncs1
→ 0.2, -2.9, 6318, 2.6, 2.3, 1.1, -7.4
#11 O=C(c1ccc(CS(=O)(=O)c2ccc(Br)cc2)o1)N1CCN(c2ccc(F)cc2)CC1
→ 3.8, -15.8, 5852, 1.5, 5.9, 10.4, 15.5
#12 Cc1ccc(S(=O)(=O)N2CN(Cc3ccco3)c3nc4ccccc4nc32)cc1C
→ -9.5, -11.3, 3367, 2.4, -19.6, 6.7, 4.5
#13 Cc1ccc(C2=NN(C(=O)c3ccccc3F)C(c3ccccc3F)C2)cc1 (stereo not given)
→ 10.8, -26.0, 3555, 7.5, 0.8, -1.1, 11.2
#14 Nc1nc(SCC(=O)Nc2cccc(F)c2)n[nH]1
→ 3.1, -8.9, 4058, 5.8, 4.4, x, 11.5
#15 COc1ccccc1CNC(=O)CC(C)c1ccccc1 (stereo not given)
→ 4.6, -17.8, 3762, 6.5, 2.5, 1.1, 3.7
#16 Cc1ccc(CNC(=O)CCSCCC(=O)NCc2ccc(C)cc2)cc1
→ -0.4, -15.9, 9465, 4.5, -1.9, 3.8, 6.8
#17 CCCOc1ccc(C(=O)CCNC(Cc2c[nH]c3ccccc23)C(=O)O)cc1 (stereo not given)
→ 2.1, -13.4, 3886, 1.6, 2.6, 10.2, 1.9
#18 CCn1ccnc1CN(C)Cc1nc(Cc2cccc(C(F)(F)F)c2)no1
→ 4.5, -3.4, 2367, 0.9, 9.2, -1.5, 9.0
#19 O=c1[nH]cccc1-c1nc2ccccc2n1Cc1ccccc1F
→ -3.1, -11.9, 3755, 6.1, 2.5, 16.1, 2.2
#20 CC1CCC(C(C)C)C(OCC(O)CN2CCN(Cc3ccccc3)CC2)C1 (stereo not given)
→ -5.4, -22.3, 2431, x, 2.2, -1.3, x
#21 CN(C)c1ccc(NC(=O)CC2NCCNC2=O)cc1 (stereo not given)
→ 6.8, 0.7, 21583*, 3.7, 3.7, -0.6, 4.2
#22 O=C(Cc1ccccc1)NN=Cc1cc(Br)cc(Cl)c1O
→ 67.1, x, x, 5.5, -2.2, x, 8.9
#23 Cc1cc(NC(=O)C(C)SCC(=O)Nc2ccc(SC(F)F)cc2)no1 (stereo not given)
→ 0.8, -16.8, 6351, -2.6, -0.6, 1.3, 7.1
#24 COc1cccc(C2CC=C(C(=O)O)C(c3cccc(Cl)c3)N2S(=O)(=O)c2ccc(C)cc2)c1 (stereo not given)
→ 59.9, x, x, 1.2, 26.4, x, 3.6
#25 O=C(Cc1cccs1)N=Nc1c(O)[nH]c2ccccc12
→ -5.5, -29.2, 5018, 3.9, 7.8, -7.9, -1.2
#26 Cc1n[nH]c(=O)n1-c1ccc(OC(F)(F)F)cc1
→ -4.2, -19.2, 3301, 7.7, 1.3, -1.8, 4.9
#27 CC1CN(c2ccc([N+](=O)[O-])cc2C(=O)N2CCOCC2)CC(C)N1 (stereo not given)
→ 4.5, -21.5, 2145, 1.5, 1.8, 11.3, 5.5
#28 Cc1nnc(SCc2cc(=O)[nH]c(N3CCN(Cc4ccccc4)CC3)n2)s1
→ 0.8, -23.2, 5840, x, 1.6, -13.0, x
#29 COc1ccc(SCCN2CCC(C)CCC2=O)cc1 (stereo not given)
→ -0.8, x, x, 12.8, 8.2, x, 20.6
#30 Cc1ccc(N2C(=O)CC(Sc3nc(C)cc(C)n3)C2=O)cc1 (stereo not given)
→ -1.6, -36.1, 3425, 1.0, 2.2, -11.4, 5.5

Brought forward from above: 3 compounds, then new ones.
Fields – Sa ugtP lethal, PrP UTR inh, Autofluor counter, Mtb hypoxia rep growth, Sa RN4220 lethal, BJeLR viability, Mtb hypoxia rep
#28 Cc1nnc(SCc2cc(=O)[nH]c(N3CCN(Cc4ccccc4)CC3)n2)s1
→ 0.8, -23.2, 5840, x, 1.6, -13.0, x
#29 COc1ccc(SCCN2CCC(C)CCC2=O)cc1 (stereo not given)
→ -0.8, x, x, 12.8, 8.2, x, 20.6
#30 Cc1ccc(N2C(=O)CC(Sc3nc(C)cc(C)n3)C2=O)cc1 (stereo not given)
→ -1.6, -36.1, 3425, 1.0, 2.2, -11.4, 5.5
#31 CCC(c1nnnn1Cc1ccc(F)cc1)N(CCCO)Cc1cc2cc3c(cc2[nH]c1=O)OCO3 (stereo not given)
→ 1.5, -16.7, 6245, x, -3.1, -8.8, x
#32 COc1ccc(-c2csc(NNC3=NCCCCC3)n2)cc1
→ -14.4, x, x, 10.0, 3.1, 10.2, 7.7
#33 c1ccc2c(c1)CCCN2Cc1nnnn1CC1CCCO1 (stereo not given)
→ -5.0, -6.8, 6614, 8.5, -1.3, -4.6, 3.1
#34 CC(C)Oc1ccc(C2CC(=O)N(c3cccc(C(=O)O)c3)C2=O)cc1 (stereo not given)
→ 12.7, -15.0, 3504, 7.8, 0.0, -2.1, 16.1
#35 COc1ccc(S(=O)(=O)Nc2ccc(N3CCOCC3)nc2)cc1
→ -6.2, -24.1, 5345, -2.4, -3.0, -0.2, -5.8
#36 Cc1ccc(C)c(S(=O)(=O)N2CCN(C(=O)c3ccnn3C)CC2)c1
→ 0.1, -16.8, 5153, 9.7, -1.0, 7.6, 1.3
#37 CCc1nnc(NC(=O)CSc2nnc(COc3ccc(C#N)cc3)n2-c2ccccc2)s1
→ 5.3, -10.6, u, 6.4, 4.5, -9.2, 4.4
#38 Cc1ccc(-c2csc(NC(=O)CCNC(=O)c3ccco3)n2)cc1
→ -3.1, -5.3, 4016, 9.4, 7.9, 8.3, 14.4
#39 C=CC(C)N(Cc1ccc(OC)cc1)S(=O)(=O)N(Cc1ccccc1)C(C=C)C(C)C (stereo not given)
→ 6.6, x, x, 11.9, -1.5, x, 10.8
#40 O=[N+]([O-])c1ccc(-c2ccc(/C=N/Nc3nc(N4CCCC4)nc(N4CCCC4)n3)o2)cc1
→ x, -17.9, 4334, x, x, 3.9, x
#41 Cc1cc(N/N=C/c2ccc(O)c(C)c2O)nc(-c2ccccc2O)n1
→ x, -1.8, 11275, x, x, 28.9, x
#42 C#CCOc1ccccc1C=NNC(=O)c1ccccc1OCc1ccccc1
→ -0.9, x, x, -10.8, 0.3, x, 11.5
#43 COc1ccc(Cl)cc1Nc1nc(-c2sc(NC(=O)C(C)(C)C)nc2C)cs1
→ -0.5, -17.2, 3849, 1.2, -7.0, 4.8, -0.2
#44 Cc1ccc(C(c2nnnn2C2CCCC2)N2CCN3CCCC3C2)cc1 (stereo not given)
→ 5.8, -19.0, 4982, 5.5, 5.1, -9.4, 9.3
#45 CCCc1cc(C(=O)OCC(=O)N2CCN(c3ccc(OC)cc3)CC2)sc1C
→ -1.2, -12.5, 3425, -0.8, 2.7, x, 9.3
#46 Cc1[nH]n(-c2cccc(Cl)c2)c(=O)c1C=NC12CN3CN(CN(C3)C1)C2
→ 11.5, -13.3, 2184, x, 2.6, 14.7, x
#47 Cc1cccc(OCC(=O)N2CCc3ccccc3C2)c1
→ 3.4, -22.8, 4112, 3.2, 2.7, -3.5, 10.3
#48 COc1cc(/C=C/C(=O)NCc2ccccn2)cc(OC)c1OC
→ 3.4, -9.6, 2528, 1.3, 0.9, -8.2, 5.1
#49 Clc1ccccc1CSc1nnc(/C=C/c2ccccc2)o1
→ 14.8, -27.7, 2790, x, 7.2, -4.7, x
#50 CC(=O)c1ccc(C(=O)Nc2sc3c(c2C(N)=O)CCN(Cc2ccccc2)C3)cc1
→ -24.8, -8.8, 7223, 9.4, -8.9, 23.0, -7.7
#51 COc1cccc(NS(=O)(=O)c2cc(C)sc2C)c1
→ 6.4, 0.4, 3431, 10.5, 12.3, 3.9, 8.0
#52 Oc1ccc2ccccc2c1/C=N/Nc1ccccc1
→ x, -61.9, 2477, x, x, -3.6, x
#53 COc1ccccc1/C=C/C=N/n1c(C)nnc1C
→ x, -14.5, 4077, x, x, 1.9, x
#54 CC(=O)N(C(C)=O)c1ccc2nc(C)[nH]c(=O)c2c1
→ 5.6, -11.4, 9407, 1.9, 8.6, 7.8, 10.9
#55 COc1cccc(OC)c1C(=O)Nc1ccc(CN2CCCCC2)cc1
→ 4.6, -17.2, 2985, x, 1.0, 4.8, x
#56 CCNc1c(NS(=O)(=O)c2ccc(Cl)s2)c(=O)oc2ccccc12
→ -3.7, -15.8, 3720, 2.1, 7.2, -7.2, 2.0
#57 O=C(Nc1ccc(S(=O)(=O)NCc2ccco2)cc1)C1CCCCC1
→ 0.0, -10.2, 4626, -1.5, 1.8, -2.7, -5.8
#58 CC(C)c1ccc[n+](-c2nc([O-])sc2C=O)c1
→ 3.8, x, 4468, -0.3, 1.7, 2.6, -7.3
#59 Cc1ccc(OCC(=O)N(Cc2cccs2)C2CCS(=O)(=O)C2)cc1 (stereo not given)
→ 3.3, -16.4, x, 4.0, 0.8, -4.0, 0.4
#60 CCS(=O)(=O)N1CCN(C(=O)CC(C)C)CC1
→ -0.4, 10.7, 3048, 15.7, 4.5, -1.7, 2.9
#61 CN1CCN(NC(=O)Nc2ccc([N+](=O)[O-])cc2)CC1
→ 2.5, -23.8, 5146, -8.4, 1.8, -5.7, 8.6
#62 O=S(=O)(NCc1cccnc1)c1ccc2c(c1)OCCO2
→ -1.2, -40.5, 10289, 5.5, 1.6, -2.2, 3.6
#63 CN1CCN(CCCNC(=O)c2nnc(Cc3c(F)cccc3Cl)o2)CC1
→ -6.1, -9.6, 18850*, -6.5, -4.0, 6.2, -3.5
#64 O=C(NCc1ccco1)C1(S(=O)(=O)c2ccccc2)CC=CC1
→ -0.6, -25.0, 3429, 6.7, 3.7, -19.1, 1.5
#65 COC(=O)/C=C1/C(=O)N/C(=N\c2nc(C)cc(C)n2)N1c1ccc(OC)cc1
→ 6.7, -20.1, 2763, -1.4, 0.3, 0.9, 2.7
#66 Cc1ccc2nc(-c3ccc(F)cc3)nc(SCC(=O)NCC3CCCO3)c2c1 (stereo not given)
→ 1.8, -24.9, 6082, -4.8, 4.5, -3.1, -3.9
#67 O=C(Cc1cccs1)Nc1ccccc1
→ 3.7, -18.2, 3758, -7.4, 3.4, 0.2, -7.1

Rows were taken by chance; 4% or so of the library scored in one or more.
